Anaer choline gr = growth inhibitors of anaerobic choline-fed gram-negatives, minimal medium, absorbance; calls only; Gram-negative bacterium anaerobic choline minimal medium; hits give low values; many inactives read as strong as hits in the columns shown; 55,000 tested, 0.2% active;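 active = growth z-score on choline under -2 at 7 or 20 h with little or no fall on glycerol, limits in tiers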;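 also: stock transfer was 300 nL into about 50 µL; the organism is E. coli; final concentration not given here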
Anaer choline gr early = recorded beside Anaer choline gr, whose call it bears; z-score; measured here: choline growth z-score, timepoint 1;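 score of optical density at 7 h as mean of two plates; lower means less growth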
Starred values were filed as active, the others as inactive; i = inactive.

Second line of a record: Anaer choline gr	Anaer choline gr early
Cn1c(CN(c2ccc(F)cc2)S(C)(=O)=O)nnc1SCC(=O)Nc1cc(F)cc(F)c1
    i	-0.65
CCCCCNc1ncnc2c1nnn2CC
    i	-1.9
Clc1cccc(-c2noc3ncnc(N4CCOCC4)c23)c1
    i	-0.03
Cc1ccc2onc(CNC(=O)NCCCN3CCN(c4ccc(F)cc4)CC3)c2c1
    i	-0.67
CC(CNC(=O)c1csc2c1CCCC2)c1ccccc1 (stereo unspecified)
    i	0.33
O=C(Nc1ccc(-c2nc3ccccc3[nH]2)cc1)c1cc(-c2ccncc2)n[nH]1
    i	0.11
COCCCNC(=O)c1ccc(Oc2nccnc2N2CCCCC2)cc1
    i	-0.5
Cc1cccc(OCc2nc(C)c(C(=O)Nc3nc4c(s3)CCCC4)s2)c1
    i	1.1
Cc1ccc(NC(=O)c2nnc(CSCC(=O)NC3CCN(Cc4ccccc4)CC3)s2)cc1
    i	-1.1
CCCCC[C@H](O)/C=C/[C@@H]1[C@@H](C/C=C\CCCC(=O)O)[C@H]2CO[C@@H]1C2
    i	0.33
CC(C)NC(=O)CCc1nc(-c2nn(-c3ccc(F)cc3)c(=O)n(C)c2=O)no1
    i	0.82
Cc1noc(-c2ccc(NC(=O)C3CC(=O)N(c4ccccc4)C3)cc2)n1 (stereo unspecified)
    i	-1.1
CCn1nc(C)n2cc(S(=O)(=O)N3CCOCC3)cc2c1=O
    i	0.85
O=C(Nc1ncn[nH]1)c1cc(-c2ccccc2)nc2ccccc12
    i	-0.96
COCCN(CCC(=O)N1CCNCC1)C(=O)c1ccc(C)cc1
    i	0.23
Cc1sc2c(c1C)CSC(C(=O)Nc1c(C)n(C)n(-c3ccccc3)c1=O)=C2
    i	-0.41
CCCCc1ncc(C=C(Cc2cccs2)C(=O)O)n1Cc1ccc(C(=O)O)cc1
    i	0.82
CCOCCCNc1nc(C)nc2onc(C)c12
    i	-1.3
Cc1ccc(C(C)NC(=O)C2CCN(c3ccnc(-c4cccc(C)c4)n3)CC2)cc1 (stereo unspecified)
    i	1.3
Cc1ccc(Cl)cc1N1CCN(C(=O)C2CCN(c3nc4ccccc4n4cccc34)CC2)CC1
    i	-0.15
O=S(=O)(c1ccc2c(c1)OCCO2)N1CCCC1c1ccc(Cl)cc1 (stereo unspecified)
    i	2.4
COc1ccc(CC(=O)n2c(=O)oc3ccc(C)cc32)cc1
    i	-0.31
Cc1ccc(N2CCN(C(=O)CC3=NS(=O)(=O)c4ccccc4N3)CC2)c(C)c1
    i	-1
COc1ccc(CNC(=O)c2nnn(Cc3nc(-c4ccccc4)oc3C)c2N)cc1OC
    i	-0.11
CCCCNc1cc(-n2nc(C)cc2C)ncn1
    i	0.23
COc1cc(Cl)ccc1S(=O)(=O)N1CCN(Cc2nc3cccnc3n2-c2ccc(C)cc2)CC1
    i	0.48
COc1ccc(NC(=O)Nc2nnc(-c3ccncc3)s2)cc1
    i	-1.7
CCc1ccc(NS(=O)(=O)c2[nH]ncc2-c2ccc(Cl)cc2)cc1
    i	0.95
COc1ccc(-n2nnnc2C2CCN(S(=O)(=O)c3cccc(Cl)c3C)CC2)cc1
    i	1.4
CN(C)C(=O)c1csc2nc(-c3ccc(NC(=O)c4ccc(F)c(Cl)c4)cc3)cn12
    i	-0.61

Among those listed so far, these contain fluorine.
Second line of a record: Anaer choline gr	Anaer choline gr early
Cn1c(CN(c2ccc(F)cc2)S(C)(=O)=O)nnc1SCC(=O)Nc1cc(F)cc(F)c1
    i	-0.65
Cc1ccc2onc(CNC(=O)NCCCN3CCN(c4ccc(F)cc4)CC3)c2c1
    i	-0.67
CC(C)NC(=O)CCc1nc(-c2nn(-c3ccc(F)cc3)c(=O)n(C)c2=O)no1
    i	0.82
CN(C)C(=O)c1csc2nc(-c3ccc(NC(=O)c4ccc(F)c(Cl)c4)cc3)cn12
    i	-0.61

Remaining list, next part.
Second line of a record: Anaer choline gr	Anaer choline gr early
Cc1ccc(OCc2cc(=O)n3ccsc3n2)cc1C
    i	0.77
O=C(NCc1nnc2n1CCCC2)c1ccoc1
    i	-0.08
Cc1cc(C)cc(Nc2ncccc2N)c1
    i	-1
Cc1ccc(S(=O)(=O)N2CCCC(c3nc(-c4ccccc4C)no3)C2)cc1 (stereo unspecified)
    i	2.8
Cc1nn(CC(=O)N2CCCC2)c(C)c1S(=O)(=O)N1CCCC(C(=O)Nc2ccc(F)cc2)C1 (stereo unspecified)
    i	-0.4
Cn1c(CNC(=O)c2cc3c(s2)CN(C2CC2)C3)nc2ccccc21
    i	0.37
Cc1cc(C)cc(Nc2cc(C(C)C)nc3nc(-c4cccnc4)nn23)c1
    i	-2
O=S(=O)(c1ccccc1F)N1CCC2(CC1)Nc1cc(F)ccc1-n1cccc12
    i	0.41
Cc1ccccc1-c1noc(-c2nnn(-c3ccc(Br)cc3)c2C)n1
    i	1.9
O=c1ncc(F)c[nH]1
    i	-0.08
Cc1sc(-c2cc(C(F)(F)F)on2)cc1S(=O)(=O)Nc1ccc(F)cc1
    i	0.55
COC(=O)c1nc2ccccc2nc1NCc1ccco1
    i	1.6
CC(C)NC(=O)CCc1nc(-c2nn(-c3ccccc3)c(=O)n(C)c2=O)no1
    i	-0.94
CS(=O)(=O)N1CCCN(c2ccc(=O)n(-c3ccccc3)n2)CC1
    i	0.68
CN(C)C(=O)C1CCN(S(=O)(=O)Cc2ccc(F)cc2)CC1
    i	1.2
O=C(Nc1ccccc1)N1CCC(N2CCN(Cc3ccccc3)C2=O)CC1
    i	-1.1
O=C(O)COc1ccc(OCCNC[C@@H](O)COc2ccccc2)cc1
    i	0.88
CC(C)(C)C(=O)N1CC(=O)Nc2ccccc21
    i	-0.17
O=C1c2ccccc2S(=O)(=O)N1CC(O)CN1c2ccccc2Sc2ccccc21 (stereo unspecified)
    i	1.6
Cc1nc2cccnc2n1-c1cc(C(=O)NCCC(C)C)ccc1Cl
    i	0.01
c1ccc(N2CCN(CCCOc3ccc4c(c3)OCO4)CC2)cc1
    i	-0.28
CCC1(C)CC(=O)c2c(ccc3oc(C(=O)NCCc4ccccc4)c(C)c23)O1 (stereo unspecified)
    i	0.81
CCN(CCN(C)C)c1ccc(NC(C)=O)cc1C(=O)O
    i	-0.2
CCOC(=O)c1c(NC(=O)c2c(F)cccc2F)sc2c1CCN(CC)C2
    i	-2.6
O=c1nc(SCc2ccc(Cl)cc2)c2c(n1CCc1ccccc1)CCC2
    i	2.4
CCN1C(=O)CCc2cc(NS(=O)(=O)c3ccccc3Br)ccc21
    i	1.1
Clc1ccc(-c2ccc(CNC3CC3)o2)c(Cl)c1
    i	-1.7
CC(C)(C)NC(=O)c1cn2c(n1)CCCC2
    i	-1.4
O=C(CC1CCN(S(=O)(=O)c2ccccc2)CC1)NCCN1CCCCC1
    i	-1.4
Cc1ccc2ccc3cc(C(=O)NCC4CCCO4)nc3c2[nH]1 (stereo unspecified)
    i	-0.68
Cc1ccc2c(c1)c1c(n2CC(O)Cn2c(C)nc3ccccc32)C(=O)CCC1 (stereo unspecified)
    i	0.5
CC(C)n1c(=O)[nH]c2cc(-c3noc(-c4ccc5c(c4)OCO5)n3)ccc21
    i	0.61
CC1Oc2ccc(C(=O)CSc3nc(-c4ccc(Cl)cc4)c(C#N)c(=O)[nH]3)cc2NC1=O (stereo unspecified)
    i	-0.72
CCN(CC)C(=O)Cn1c(=O)n(Cc2ccc(C(=O)NCCC(C)C)cc2)c(=O)c2cc(OC)c(OC)cc21
    i	0.13
O=C(O)c1cnn2c(-c3ccc(Cl)cc3)ccnc12
    i	0.4
CCOC(=O)CC(=O)CSc1nc2ccccc2c(=O)n1CCc1ccc(S(N)(=O)=O)cc1
    i	1
O=C(NC1CCCC1)C1CCCN(C(=O)c2ccc(NS(=O)(=O)c3ccc(Cl)cc3)cc2)C1 (stereo unspecified)
    i	-0.44
COc1ccc(Nc2nc(C(=O)N3CCC(Cc4ccccc4)CC3)cs2)cc1
    i	0.81
COCCCNC(=O)N1CCN(CCn2c(C(F)(F)F)nc3cccnc32)CC1
    i	0.1
CC(C)NC(=O)c1ccc2c(=O)n(CCc3ccccc3)c(SCC(=O)c3ccc(F)cc3)nc2c1
    i	0.36
O=C(Nc1c(C(=O)c2ccccc2)oc2ccccc12)c1ccccc1Cl
    i	1.7
CCCCC[C@H](O)/C=C/[C@H]1[C@H](O)CC(=O)[C@@H]1CCCCCCCCC(=O)O
    i	-0.35
O=C(Nc1ccc2c(c1)OCO2)N1CCC(n2cnc3cccnc32)CC1
    i	0.05
Cc1ccsc1C1CCCCCN1C(=O)NC1CCCCC1 (stereo unspecified)
    i	-0.19
CCC(=O)N1CCCC1c1nc2ccccc2n1CCCCOc1cccc(OC)c1 (stereo unspecified)
    i	-0.88
O=C(CSc1nnc2c(=O)n(-c3ccc(F)cc3)ccn12)c1ccc(F)cc1
    i	1.6
O=C(Cc1ccc(NC(=O)N2CCCCc3ccccc32)cc1)NCC1CCCO1 (stereo unspecified)
    i	-1.1
O=c1ccc(-c2ccccc2)nn1CCc1nc(-c2ccccc2Br)no1
    i	0.26
COc1ccc(C(=O)NC(=NCc2ccncc2)Nc2ccccc2)cc1OC
    i	-0.71
Cc1cc(C)c(/C=C/c2onc(C)c2S(=O)(=O)N2CCCC(C(=O)N3CCCCC3)C2)c(C)c1 (stereo unspecified)
    i	0.14
CC(=O)N1CCCC1c1nc2ccccc2n1CCOc1ccc(Cl)cc1 (stereo unspecified)
    i	1.1
O=c1c2c3c(sc2nc2n1CCC2)CCCC3
    i	-0.99
CN(C)CCC=C1c2ccccc2COc2ccccc21
    i	-0.92
O=C(Cn1cc(-c2nc(-c3ccc(Cl)cc3)no2)ccc1=O)NC1CCCCC1
    i	-0.11
Cn1c(SCC(=O)c2ccc3c(c2)OCCO3)nnc1-c1ccc2c(c1)OCCCO2
    i	0.65
COC(=O)c1cc(S(=O)(=O)N2CCCC2C(=O)Nc2ccc3c(c2)OCCO3)cn1C (stereo unspecified)
    i	-0.32
CNC(=O)CCc1nc(-c2cc3ccc(C)cc3[nH]c2=O)no1
    i	2.4
Cc1cc(NC(C)C)n2nc(C(F)(F)F)c(-c3ccccc3Cl)c2n1
    i	-0.08
Cc1ccc(-n2nc3c(=O)n(CC(=O)NCc4ccccc4Cl)nc(C)c3c2C)c(C)c1
    i	1.1
CC1CCN(C(=O)Cc2nn(C)c(=O)c3ccccc23)CC1
    i	0.22

Single entries from the list:
Cc1cc(NC(C)C)n2nc(C(F)(F)F)c(-c3ccccc3Cl)c2n1 in Anaer choline gr early has -0.08
CN(C)CCC=C1c2ccccc2COc2ccccc21 in Anaer choline gr early has -0.92
O=c1c2c3c(sc2nc2n1CCC2)CCCC3 in Anaer choline gr early has -0.99
Cn1c(SCC(=O)c2ccc3c(c2)OCCO3)nnc1-c1ccc2c(c1)OCCCO2 in Anaer choline gr early has 0.65
CC1CCN(C(=O)Cc2nn(C)c(=O)c3ccccc23)CC1 in Anaer choline gr early has 0.22
O=C(Cc1ccc(NC(=O)N2CCCCc3ccccc32)cc1)NCC1CCCO1 (stereo unspecified) in Anaer choline gr early has -1.1

Next section:
Second line of a record: Anaer choline gr	Anaer choline gr early
CCOC(=O)c1noc2nc(C)n(CC(=O)Nc3cc(C)on3)c(=O)c12
    i	-0.43
Cc1c(Cl)cccc1-n1cc[nH]c(=O)c1=O
    i	-1.1
Cc1cc(OCC(=O)Oc2cccc(-n3cnnn3)c2)ccc1Cl
    i	-0.03
CCc1nc2nc3c(c(Nc4ccc(Br)cc4)n2n1)CCC3
    i	-0.48
O=C(Cn1ccc2ccc(N3CCOCC3)nc21)N1CCC2(CC1)OCCO2
    i	1.5
CCn1c(=O)c2c(C(=O)Nc3ccc(F)c(Cl)c3)cc(=O)n(CC)c2n(C)c1=O
    i	0.14
C=CCNC(=O)C1CCCN(c2ncnc3c2oc2ccccc23)C1 (stereo unspecified)
    i	-1.1
O=C(c1ccc(F)cc1)N1CCc2cc(CNS(=O)(=O)c3ccc(F)c(Cl)c3)ccc21
    i	-0.85
CCCN(CCC)CCCNC(=O)c1cc(Nc2ccc(OC)cc2OC)nc2ccccc12
    i	0.7
Cc1cccc(-n2ncc(C(=O)Nc3ccc(Br)cc3)c2C2CCNCC2)c1
    i	-2.5
CCn1nccc1NC(=O)c1ccc(OC)cc1
    i	-1.1
CC(=O)Nc1c(C)nn(-c2ccccc2)c1N1CCC(C(=O)NCc2ccccc2)CC1
    i	0.74
O=C(Nc1ccccc1)c1cccc(-c2cc(N3CCCC3)ncn2)c1
    i	-2.5
CCOCCCNC(=O)Cn1c(=O)c(=O)n(CC)c2ncccc21
    i	-0.76
O=C(Cn1c(=O)n2nc(-c3ccc(F)cc3)nc2c2ccccc21)c1cccc(Cl)c1
    i	-0.51

Retrieved one by one from the list above (2):
Second line of a record: Anaer choline gr	Anaer choline gr early
Cc1nc2cccnc2n1-c1cc(C(=O)NCCC(C)C)ccc1Cl
    i	0.01
CN(C)C(=O)c1csc2nc(-c3ccc(NC(=O)c4ccc(F)c(Cl)c4)cc3)cn12
    i	-0.61

Next section.
Second line of a record: Anaer choline gr	Anaer choline gr early
Cc1ccc(C(=O)NCC2COCCO2)cc1NC(=O)c1nsc2ccccc12 (stereo unspecified)
    i	0.24
COc1cc(NCc2cccn2-c2nnc(N3CCN(c4ccccc4)CC3)s2)cc(OC)c1
    i	0
CCn1c(C)ccc(-c2noc(CCC(=O)Nc3cccc(Cl)c3)n2)c1=O
    i	-1.5
CCOC(=O)c1ccccc1NC(=O)CSc1nc2cn(CC)nc2c(=O)n1CCc1ccccc1
    i	1.2
Cc1c(O)cccc1C(=O)NC(CSc1ccccc1)C(O)CN1CC2CCCCC2CC1C(=O)NC(C)(C)C (stereo unspecified)
    i	0.22
O=C(Nc1ccc(Br)cc1F)N1CCN(c2cc(-c3ccc(F)cc3)ncn2)CC1
    i	0.19
CCCCn1c(=S)[nH]c2ncccc2c1=O
    i	1.6

Bioassay records: PubChem, ICCB-Longwood Screening Facility, Harvard Medical School

The list is partial. The share of hits here may be higher or lower than overall.
